# Screening results (PubChem BioAssay)
# ugtP null kill: growth inhibition of S. aureus ugtP deletion strain; S. aureus RN4220 ugtP deletion, OD600 growth, 16 h; some inactives read as strong as hits; growth inhibition, % (concentration not given with the values); 330,000 compounds, 0.54% hits; AID 1259309;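 active = z-score under -3 and OD600 up to 0.15 on both plates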;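 note: plate controls were untreated wells for no effect and antibiotic for full effect; wells of about 80 µL received 100 nL stock; the first replicate is given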
# BJeLR lethal: kills HRASV12-expressing BJeLR cells. 300,000 compounds, 0.17% hits. inhibition, % (concentration not given with the values). BJeLR (HRASV12) viability, CellTiter-Glo ATP luminescence, 48 h; reference of the scale not given here;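 active = replicate mean above 50%; inconclusive = above 50% but judged a plate artefact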;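 note: 50 nL library stock added to about 25 µL; numbers are from one replicate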
# Bead autofluor: compound fluorescence in toxin protease inhibitor counterscreen | AID 624483 | compound autofluorescence counterscreen, microsphere flow cytometry; active compounds read high | 360,000 compounds, 3.1% hits | fluorescence intensity (test concentration not listed);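 active = at least 3 SD above the mean of all compounds, about 16000 in these data; inconclusive = too few beads counted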;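 note: 100 nL of 1 mM stock went into each well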
# RN4220 kill: S. aureus RN4220 growth inhibition; OD600, 16 h; 330,000 compounds, 0.33% hits; AID 1259311; inhibition, % (concentration not given with the values);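 active = z-score of -3 or lower and OD600 up to 0.18 on both plates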;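 note: plate controls were untreated cells for no effect and reference antibiotic for full effect; stock transfer was 100 nL into about 80 µL; one replicate is shown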
# PrP UTR inh: suppresses PrP 5' UTR mRNA reporter expression | cell-based PrP 5' UTR mRNA reporter, plate reader | inhibition, % (no concentration beside the values) | 340,000 compounds, 0.35% hits | AID 488862;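 active = every replicate at 50% or more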;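 note: 0 = median of the neutral control wells; tested in H4 reporter cells; numbers are from one replicate; inactives centre near -14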
# Mtb hypoxia rep: reduces hypoxia-regulated biosensor signal in M. tuberculosis | M. tuberculosis hypoxia-regulated fluorescent reporter, fluorescence | fluorescence inhibition, % (concentration not given with the values) | 300,000 compounds, 0.1% hits;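 active = 35 to 45% if threefold the growth effect, above 45% if 1.5-fold the growth effect; inactive = the rest, general growth blockers included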;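 note: wells of about 50 µL received 100 nL stock; 0% = vehicle wells and 100% = reference inhibitor wells; whole bacteria with a GFP reporter of the hypoxia response; strong numbers were not always called active; many hits fall short of the cut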
# Mtb hypoxia rep growth: further read-out of Mtb hypoxia rep, marked with its call; growth inhibition, %; measured here: M. tuberculosis growth (absorbance);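 0% = vehicle and 100% = reference antibiotic; read after six days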
# * hit, by the source's call; ? = inconclusive; / = not tested or not shown.
# A first look (five entries):
canonical_smiles	ugtP null kill	BJeLR lethal	Bead autofluor	RN4220 kill	PrP UTR inh	Mtb hypoxia rep	Mtb hypoxia rep growth
Cc1ccc(-c2cc(C(=O)OCC(=O)N(C)C3CCS(=O)(=O)C3)c3ccccc3n2)c(C)c1 (stereo not drawn)	1	-1	3899	20	-12	12	14
COc1cc2c(-c3ccccc3)c(C)oc2cc1/C=N/NC(N)=S	/	9	3733	/	-9	/	/
COc1cc2c(cc1OC)C(c1ccccc1)N(C(=O)CCl)CC2 (stereo not drawn)	3	38	2846	-0.2	-3	/	/
O=C1C2C(C(=O)N1/N=C/c1cc(Br)cc([N+](=O)[O-])c1O)C1C=CC2C12CC2 (stereo not drawn)	/	-7	3447	/	-10	/	/
CCOC(=O)c1sc(=S)n(-c2ccc(Cl)cc2)c1SC	28	-1	21737*	3.6	-6	-2	-12

# The list itself, repeating the preview:
canonical_smiles	ugtP null kill	BJeLR lethal	Bead autofluor	RN4220 kill	PrP UTR inh	Mtb hypoxia rep	Mtb hypoxia rep growth
Cc1ccc(-c2cc(C(=O)OCC(=O)N(C)C3CCS(=O)(=O)C3)c3ccccc3n2)c(C)c1 (stereo not drawn)	1	-1	3899	20	-12	12	14
COc1cc2c(-c3ccccc3)c(C)oc2cc1/C=N/NC(N)=S	/	9	3733	/	-9	/	/
COc1cc2c(cc1OC)C(c1ccccc1)N(C(=O)CCl)CC2 (stereo not drawn)	3	38	2846	-0.2	-3	/	/
O=C1C2C(C(=O)N1/N=C/c1cc(Br)cc([N+](=O)[O-])c1O)C1C=CC2C12CC2 (stereo not drawn)	/	-7	3447	/	-10	/	/
CCOC(=O)c1sc(=S)n(-c2ccc(Cl)cc2)c1SC	28	-1	21737*	3.6	-6	-2	-12
CCC1(c2ccc(OC)cc2)NC(=O)N(CC(=O)NC2CCCCC2C)C1=O (stereo not drawn)	-3	/	3832	0.8	-24	8	8
O=C(Nc1ccc(S(=O)(=O)Nc2ncccn2)cc1)c1ccc(Cl)c([N+](=O)[O-])c1	7	-1	3945	6.5	-37	24	12
COc1cccc(N2CCN(S(=O)(=O)c3ccc(CN4C(=O)c5cccnc5C4=O)cc3)CC2)c1	3	-8	5291	4.0	5	11	7
COc1ccccc1OCC(=O)N1CCCCCCC1	3	-5	3879	2.1	-9	9	7
COc1ccccc1C(=O)N=C1NC(=O)CC2C(=O)NCCN12 (stereo not drawn)	9	1	3286	2.2	-32	6	2
Cc1ccc(NC2=NCC(=O)N2C2CCCC2)c(C)c1	9	5	2915	-2.1	-12	/	/
CC(=O)Nc1ccc(CC(=O)N2CCN(Cc3ccccc3)CC2)cc1	6	2	3642	-2.1	-13	-9	3
COc1cc(C(=O)NC(=S)Nc2nccs2)cc(OC)c1OC	4	2	2310	-0.3	-9	10	3
CCN(c1ccccc1)S(=O)(=O)c1ccc2ccccc2c1	34	0	3988	8.7	2	13	11
O=C(C[n+]1ccc(C(=O)NN=Cc2ccc(Cl)cc2Cl)cc1)c1ccccc1	7	/	/	3.9	/	20	13
NC(=O)c1ccccc1NC(=O)/C=C/c1ccc(Cl)cc1	-10	7	9926	12	-53	-1	-2
Cc1cccc(C(C)C)c1NC(=O)CN1C(=O)NC2(CCc3ccccc32)C1=O (stereo not drawn)	3	3	/	0.4	-7	-2	5
Cn1cc(CN2CCN(Cc3ccccc3)C(CCO)C2)c(-c2ccccc2)n1 (stereo not drawn)	-1	-3	5766	2.2	-24	8	-5
Cc1cc2ncn(C(=O)N3CCCCC3)c2cc1C	2	10	10550	8.3	-35	16	3
NC(=O)CNC(=O)[C@@H]1CC2(CC(c3cccc([N+](=O)[O-])c3)=NO2)CN1C(=O)c1ccccc1 (stereo partly drawn)	/	3	4541	/	-16	/	/
COc1cc2c(C#CCCO)c(-c3ccc(C#N)cc3)oc(=O)c2cc1OC	-11	/	3950	1.9	0	9	9
O=C(/C=C/c1cccc([N+](=O)[O-])c1)Nc1cccc(NC(=O)c2cccs2)c1	-30	-3	2119	5.1	-22	-10	6
CC(=NNC(=O)c1ccc(O)cc1)c1ccc2c(c1)OCCO2	1	/	/	-0.5	/	1	2
N=C1SC(c2ccccc2)C(=O)N1c1ncc(Cc2ccccc2)s1 (stereo not drawn)	-4	-2	2459	33	-17	7	7
COc1ccc2[nH]c3c(c2c1)CCN1C(=O)N([C@@H](C)C(=O)NCC2CCCO2)C(=O)[C@]31C (stereo partly drawn)	10	3	4668	0.7	-7	/	/
COc1ccc(CC(=O)NNC(=O)COc2ccc(C)cc2)cc1S(=O)(=O)N1CCOCC1	0	-4	?	-0.7	-10	0	11
CCCn1cnc2c(SCc3ccccn3)nc(N)nc21	-3	/	2995	1.9	-3	8	7
O=C(CSc1n[nH]c(-c2ccccc2Cl)n1)NC1CCCCC1	-7	-12	2717	-4.6	-25	-8	-6
CCC(=O)Nn1c(C2CCC2)nc2ccccc2c1=O	7	-2	4074	6.1	-45	-1	7
O=C(NC1CC1)C1CCN(C(=O)c2ccc(Cl)cc2Cl)CC1	-3	-8	3574	6.7	-25	4	7
COc1ccc(C(=O)n2cc(C(=O)c3cc(C)ccc3O)cn2)cc1OC	8	3	2648	0.7	-22	8	0
CCc1c(C(=O)Nc2ccc(OC)c(Cl)c2)[nH]c(C)c1C(C)=O	-6	1	9553	4.9	-26	-11	5
CC(CC(=O)Nc1ccc(C)c(Cl)c1)=NNC(=O)c1ccco1	-4	/	/	6.3	/	17	6
Cc1cccc(C)c1NS(=O)(=O)c1c(C)[nH]c(=O)[nH]c1=O	-2	-2	5937	0.9	-21	4	6
Cc1c(Cl)cccc1NC(=S)N(CCN(C)C)C(C)c1ccccn1 (stereo not drawn)	1	-4	4237	3.3	-7	11	4
COCCCNC(=O)CS(=O)Cc1nc(-c2cccc(OC)c2)oc1C (stereo not drawn)	0	-11	6148	2.8	-23	9	4
Cc1nn(-c2ccccc2)c(Cl)c1C(=O)NCC(C)c1ccccc1 (stereo not drawn)	3	-2	5243	9.1	-18	20	12
CC1CCC(NC(=O)c2cccn2C)CC1 (stereo not drawn)	4	/	5932	1.6	-94	7	12
O=C(CCCC(=O)N1CCN(c2ccccc2F)CC1)N1CCN(c2ccccc2F)CC1	-1	-6	3146	-18	-11	25	-14
COc1cc(CCc2ccc3c(c2)OCO3)oc(=O)c1	9	7	4228	2.7	-33	/	/
Cc1cc(C)n(C(=O)c2cc(F)c(F)cc2C)n1	5	-2	2516	1.1	-14	-2	4
Cc1cc(C)n2c(SC(C)C(=O)NC3(C#N)CCCCC3)nnc2n1 (stereo not drawn)	5	/	3940	1.4	-8	2	-6
CCOC(=O)c1nn(-c2ccccc2)c(-c2ccccc2)c1C(=O)c1ccccc1	11	4	2931	-3.1	-9	12	16
CC(=NOC(=O)C1CC1c1ccccc1)c1ccccc1 (stereo not drawn)	25	/	/	0.5	/	4	2
Cc1ccc(NC(=O)/C=C2\NC(=O)CS2)cc1	3	2	3874	-3.1	-42	-3	4
COc1ccc(C2NC(=O)NC3=C2CCc2ccccc23)cc1 (stereo not drawn)	1	17	4325	2.5	-7	/	/
O=C(NCC1CCCO1)c1ccccc1-c1nc(-c2ccccc2F)no1 (stereo not drawn)	-2	0	5731	1.6	-23	5	5
O=C(Cc1noc2ccccc12)NNC(=S)Nc1ccccc1	3	-4	3275	9.0	-11	1	-5
COc1cc(/C=C2\SC(=O)N(CCNC(=O)c3cnc(C)cn3)C2=O)cc(OC)c1OC	1	-17	2152	0.3	-42	0	5
COc1ccc(N(C(=O)Cc2cccs2)C(C(=O)NC2CCCC2)c2ccncc2)cc1 (stereo not drawn)	5	7	3579	1.8	-22	12	1

# Next section.
canonical_smiles	ugtP null kill	BJeLR lethal	Bead autofluor	RN4220 kill	PrP UTR inh	Mtb hypoxia rep	Mtb hypoxia rep growth
CCN(CC)S(=O)(=O)c1ccc2c(c1)nc(SCC(=O)NCC1CCCO1)n2CC (stereo not drawn)	5	4	/	7.8	-16	-4	5
CN(C)c1ccc(CNc2nc(-c3ccccc3)nn2S(C)(=O)=O)cc1	3	6	4054	1.5	-27	-1	-1
Cc1ccc2nc(SCC(=O)NC3CC3)[nH]c2c1	2	-11	4233	1.7	-18	-2	-3
COCCC(=O)N1CCC(Oc2ccc(C(=O)N3CCCCCC3)cc2)CC1	9	4	5552	5.7	-17	-9	-2
Cc1ccsc1/C=N/NC(=O)c1ccc2ccccc2c1	/	4	5773	/	-58	/	/
O=C(CCCC(=O)Nc1ccccc1Br)NN=Cc1c(F)cccc1Cl	-4	/	/	2.5	/	8	1
CC(=O)Nc1ccc(S(=O)(=O)NCCc2cc3c(C)ccc(C)c3[nH]c2=O)cc1	3	8	5578	3.6	-12	10	7
CCOc1ccccc1NC(=O)C(=O)NN=Cc1cc(Br)ccc1O	19	/	/	-4.3	/	12	6
CCOC(=O)N1CCN(C2=CC(=O)OC23CCCCC3)CC1	-5	0	11387	-3.6	-13	-7	-2
CCCCn1c(=O)n(CC(=O)Nc2ccc(OC)c(Cl)c2)c(=O)c2c1nc(CO)n2CCC	11	-17	2515	-1.9	-17	2	13
CCOc1ccc(C(=O)/C=C/Nc2ccc(S(=O)(=O)Nc3onc(C)c3C)cc2)cc1	-6	0	1940	15	-27	5	9
O=C(NC1CCCC1)c1cc(-c2ccc(Cl)c(Cl)c2)on1	0	-3	5480	13	-55	16	1
CC(N=C1NS(=O)(=O)c2ccccc21)C(=O)Nc1ccc(F)cc1Cl (stereo not drawn)	5	/	5556	4.6	-11	4	5
CCN=C(Nc1ccc(Cl)cc1)c1cccnc1	0	0	8881	1.7	-30	13	2
N#CCSc1nnc(CNc2ccc(F)cc2)o1	-1	4	4370	5.6	-16	10	7
O=C1COc2ccc(C(=O)COC(=O)Cn3cnc4ccccc43)cc2N1	8	11	3375	10	-4	-7	-4
Cn1c(CSCc2ccccc2)nnc1SCC(=O)Nc1ccc(C(=O)O)cc1	-1	3	4594	3.2	-15	8	0
O=C(NCc1ccccc1)Oc1cccc(Cl)c1	-6	-11	19856*	-0.4	-8	-11	-4
Cc1coc(NC(=O)CSc2nc(-c3ccc(Cl)cc3)cc(C(F)(F)F)c2C#N)n1	7	-5	16407*	11	-2	3	5
COC(=O)c1cc(OC)c(OC)cc1NC(=O)c1cc(OC)cc(OC)c1	-4	6	2544	5.6	2	12	5
O=C(NCCCN1CCOCC1)c1ccccc1	8	0	3304	-0.8	-12	1	-9
CSCCC(NC(=O)Nc1cccc(C(F)(F)F)c1)C(=O)O (stereo not drawn)	5	/	/	2.8	/	-2	2
C[C@H](NC(=O)[C@@H]1Cc2ccccc2CN1)C(=O)NC[C@H]1CC[C@H](C(=O)O)CC1	/	-8	3109	/	-13	/	/
COc1ccc(-n2c(=S)[nH]c3cc(C(=O)NCc4cccnc4)ccc3c2=O)cc1	0	0	2998	-3.1	5	-11	-5
CCC(=O)NC(=S)Nc1cccc(Cl)c1N1CCCC1	2	-2	4450	32	-16	3	-5
Oc1c(CN2CCCCC2)cc(COCc2ccccc2)c2cccnc12	/	-13	2464	/	42	/	/
O=C(COc1ccc(/C=N/NC(=O)c2ccc(O)cc2)cc1)Nc1ccc([N+](=O)[O-])cc1	/	-8	10085	/	4	/	/
Oc1ccccc1Nc1ccccn1	-1	-3	3402	3.9	/	1	2
NS(=O)(=O)c1cccc(NC(=O)COC(=O)c2cc(-c3ccc(Cl)cc3)nc3ccccc23)c1	24	2	2191	-11	-11	1	2
CN1C(=O)C(=Cc2ccc(OCC(=O)Nc3ccccc3)cc2)C(=O)N(C)C1=O	8	-2	4161	0.2	-16	1	-7
CC(=O)NC(=S)Nc1ccc(NC(=S)NC(=O)c2ccc([N+](=O)[O-])cc2)cc1	4	0	5129	1.1	-14	10	9
NC(=O)CC[C@H](NC(=O)c1ccc(F)cc1)C(=O)OCC(=O)NCc1ccc(F)cc1	/	2	?	/	-12	/	/
Cc1cccn2c(=O)c(C=O)c(N3CC(C)OC(C)C3)nc12 (stereo not drawn)	4	16	3926	4.9	-9	17	7
Cc1ccccc1OCC(=O)Nc1ccccc1N1CCCCC1	18	-11	8706	4.3	-33	16	12
